RE007 growth inh: less growth of the S. pombe RE007 Vpr strain. S. pombe RE007 Vpr strain, BacTiter-Glo ATP luminescence, 24 h; control for the full effect not named in the record. Potency, µM (top dose mostly 92.2 µM), for the others: at the highest dose activity change, negative = less growth. 360,000 tested, 0.21% active; active = well fitted falling curve with a large enough effect; inconclusive = small, poorly fitted or top-dose-only effect; inactive = no such curve, though single readings can be large or run the other way;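 further: on the % scale 0 is the no-effect control and ±100 the full control effect; nearly all actives have a fitted effect of over 50% in size; the assay follows cell death caused by Vpr and the record does not say whether a fall means rescue or toxicity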
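Fission yeast strain RE007, carrying one chromosomally integrated HIV-1 vpr copy, was seeded at OD 0.01 in PMG+AL medium with 23 nL pinned compound. After 24 h at 30 °C and 99% humidity, viability was read by BacTiter-Glo luminescence.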
LASV entry inh: inhibitors of Lassa virus binding or cell entry; AID 540256; 300,000 tested, 1.2% active; Lassa virus pseudotype entry inhibition, cell reporter; control for the full effect not named in the record; Potency, µM (series often up to 37.9 µM), inactives show at the top dose activity change, negative = inhibition, actives largely listed as inhibitors; active means well fitted inhibition curve with a large enough effect; inconclusive means small, poorly fitted or top-dose-only effect, or effect the other way; inactive means flat fitted curve, though single readings scatter; tested in HEK293 cells; further: on the % scale 0 is the no-effect control and ±100 the full control effect; nearly all actives have a fitted effect of over 50% in size; luciferase read-out
Cruzain inh noDet: inhibitors of Trypanosoma cruzi cruzain without detergent | AID 1476 | P25779 | 200,000 tested, 2.3% active | Potency, µM, for the others: max response, negative = inhibition, actives largely listed as inhibitors | purified cruzain, Z-FR-AMC fluorescence, no detergent; active means well fitted curve in the direction sought with a large enough effect; inconclusive means small, poorly fitted or top-dose-only effect, or another doubt; inactive means no such curve, though single readings can be large; an effect the other way counts as inactive or inconclusive;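 further: plate controls were enzyme without inhibitor for no effect and buffer without enzyme for full effect; nearly all actives have a fitted effect of over 40% in size; top concentration of the series not given in the record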
Target sequence (P25779 123-467 limits assumed): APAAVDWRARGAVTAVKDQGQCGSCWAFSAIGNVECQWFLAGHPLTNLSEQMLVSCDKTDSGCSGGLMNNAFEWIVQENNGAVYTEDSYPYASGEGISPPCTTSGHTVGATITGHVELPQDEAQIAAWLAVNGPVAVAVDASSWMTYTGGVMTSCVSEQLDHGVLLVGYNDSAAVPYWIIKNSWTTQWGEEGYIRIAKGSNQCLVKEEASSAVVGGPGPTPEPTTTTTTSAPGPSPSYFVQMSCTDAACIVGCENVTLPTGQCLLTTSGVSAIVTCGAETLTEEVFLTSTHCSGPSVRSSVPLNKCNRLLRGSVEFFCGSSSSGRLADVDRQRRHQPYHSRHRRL
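Purified cruzain at 1.5 nM, pre-incubated 15 min with compound at room temperature in 100 mM sodium acetate pH 5.5, 5 mM DTT, 0.00005% Triton X-100. Reaction started with 2 uM Z-FR-AMC; AMC fluorescence increase over 60 s gives rate.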
NS1 function inh: influenza NS1 inhibition. S. cerevisiae slowed by influenza A NS1, growth recovery by OD600. Potency, µM (series often up to 46.1 µM), for inactives: top-dose activity, positive = more growth. 270,000 tested, 0.4% active. AID 2326; further: actives are rising curves; nearly all actives have a fitted effect of over 50% in size
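S. cerevisiae expressing influenza A NS1, grown in glucose, washed, then diluted 1:100 into pH 6.0 -URA galactose medium with 23 nl compound. Growth recovery read as OD600; NS1-free strain serves as control.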
Marburg entry inh: inhibitors of Marburg virus binding or cell entry; Potency, µM (top dose mostly 37.8 µM), without a hit: top-dose activity change, negative = inhibition, usual class: inhibitors; Marburg virus pseudotyped entry inhibition, cell reporter; control for the full effect not named in the record; about a third of the inactives were read at about 46 µM; AID 540276; 300,000 tested, 1.8% active; active = well fitted inhibition curve with a large enough effect; inconclusive = small, poorly fitted or top-dose-only effect, or effect the other way; inactive = flat fitted curve, though single readings scatter; tested in HEK293 cells; about a fifth of its hits are not listed in these tables; further: on the % scale 0 is the no-effect control and ±100 the full control effect; luciferase read-out
SARS PLP yeast: SARS-CoV PLP inhibition in yeast; S. cerevisiae expressing SARS-CoV PLpro, growth rescue; control for the full effect not named in the record; Potency, µM (top dose mostly 32.9 µM), for inactives: at the highest dose activity, positive = growth rescue; 330,000 tested, 0.19% active; further: 0% is about no effect; nearly all actives have a fitted effect of over 55% in size; growth read by luminescence after 48 h
2A StopGo: FMDV 2A StopGo reporter, luciferase signal; human cells with a luciferase reporter of 2A StopGo recoding; control for the full effect not named in the record; Potency, µM (doses to about 57.9 µM), for the others: at the top dose signal change, negative = less light; 410,000 tested, 1.2% active; AID 1159524; active = well fitted falling curve with a large enough effect; inconclusive = small, poorly fitted or top-dose-only effect; inactive = no such curve, though single readings can be large or run the other way; tested in HEK293T cells; further: on the % scale 0 is the no-effect control and ±100 the full control effect; nearly all actives have a fitted effect of over 45% in size; luciferase light after 4 h
Cruzain inh Det: inhibitors of Trypanosoma cruzi cruzain with detergent. P25779. purified cruzain, Z-FR-AMC fluorescence, 0.01% Triton. Potency, µM, without a hit: max response, negative = inhibition, most hits filed as inhibitors. 200,000 tested, 0.43% active. AID 1478; active means well fitted curve in the direction sought with a large enough effect; inconclusive means small, poorly fitted or top-dose-only effect, or another doubt; inactive means no such curve, though single readings can be large; an effect the other way counts as inactive or inconclusive;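 further: plate controls were neutral wells for no effect and buffer without enzyme for full effect; nearly all actives have a fitted effect of over 40% in size; top concentration of the series not given in the record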
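Enzyme 1.5 nM, Z-FR-AMC 2 uM, NaOAc 100 mM pH 5.5, DTT 5 mM, Triton X-100 0.01%; 15 min RT compound preincubation; kinetic ex360/em450, 60 s delta.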
Numbers without * were called inactive; ? = inconclusive; nt = no result given; & = joins results of further samples; [ ] = remark or other dose. Unless noted, the call rests on the fitted dose curve; in most records, active means well fitted rising curve with a large enough effect; inconclusive means small, poorly fitted or top-dose-only effect; inactive means no such curve, though single readings can be large or run the other way. Potency means the concentration at half of the fitted maximal effect.

SMILES | RE007 growth inh | LASV entry inh | Cruzain inh noDet | NS1 function inh | Marburg entry inh | SARS PLP yeast | 2A StopGo | Cruzain inh Det
Cc1ccc(S(=O)(=O)N(C)c2ccccc2C(=O)N2CCCC2)cc1 | 4% | nt | nt | 9% | nt | 2% | -2% | nt
O=C(NCc1ccc(F)cc1)c1cc2n(n1)C(C(F)(F)F)CC(C1CC1)N2 (stereo not given) | 10% | nt | 6% | ? | nt | -1% | ? | 2.9%
CCCNC(=O)COc1ncnc2sccc12 | -5% | ? | nt | nt | -2%[46.1 µM] | 0% | -11% | nt
COC(=O)CSc1nnc(Cc2ccccc2)n1-c1ccc(C)cc1 | 17% | ? | -1% | -1% | 6% | 9% | 11% | -1.2%
CCc1ccc(C2CC(=O)Nc3c2c(=O)n(C)c2ncnn32)cc1 (stereo not given) | nt | -1%[46.1 µM] | 3% | nt | 13%[46.1 µM] | nt | ? | -0.2%
O=C(CSC1c2ccccc2-c2ccccc21)N/N=C/c1ccccc1 | 30% | 0% | -8% | -1% | ? | -17% | nt | -9.0%
CN(C)c1ccc(C(CNC(=O)c2cccs2)N(C)C)cc1 (stereo not given) | 1% | nt | nt | 5% | nt | -1% | 50%[activator] | nt
Fc1ccc(Nc2nc(Nc3ccc(F)cc3)nc(N3CCOCC3)n2)cc1 | nt | 25%[46.1 µM] | -18% | nt | ? | nt | ? | -6.6%
O=C1CCCC(=O)N1c1ccc(N2CCOCC2)c([N+](=O)[O-])c1 | -15% | -13% | nt | nt | 10%[46.1 µM] | -4% | -18% | nt
CC(C)CC(c1nnnn1Cc1ccco1)N1CCN(C2CCCC2)CC1 (stereo not given) | 9% | ? | 0% | -3% | 0% | 4% | -3% | 2.9%
COc1ccc(-c2ccc(C#N)c(SCC(=O)OCc3ccccc3)n2)cc1OC | -14% | ? | 5% | 12% | -19% | 4% | -22% | 0.0%
CCC(C)(C)n1nnnc1C(c1cccs1)N1CCN(c2nc3ccccc3s2)CC1 (stereo not given) | -2% | ? | ? | -39% | ? | -1% | nt | -2.7%
C/C(=N\NC(=O)COc1ccccc1-c1ccccc1)c1ccc(O)cc1O | 15% | nt | nt | -37% | nt | -2% | 0% | nt
COc1cccc(CC(=O)Nc2nc(-c3cccnc3)cs2)c1 | 10% | ? | ? | 2% | 3% | 4% | -19% | -4.7%
O=C(COc1ccccc1C(=O)N/N=C\c1ccc(O)c(O)c1)N/N=C/c1ccc(O)c(O)c1 | -6% | -30% | -2% | -12% | ? | 7% | -14% | -12%
CCC1=Nc2cc(C(=O)NCCN3CCCC3)ccc2Sc2ccccc21 | 2% | nt | nt | 20% | nt | 6% | -25% | nt
CC1CN(C(=O)COC(=O)CSc2ccc([N+](=O)[O-])cc2)CC(C)O1 (stereo not given) | 7% | -4% | nt | nt | 26% | -3% | -21% | nt
CCOc1ccc(CCNC(=O)CCN2C(=O)COc3ccccc32)cc1OCC | -2% | -4% | 5% | -2% | -3% | -3% | nt | 2.7%
CC(=O)Oc1ccc(N2C(=O)CCC2=O)cc1 | 8% | ? | 3% | -1% | 1% | 12% | -3% | 7.2%
Cc1ccc(C)c(N2CCN(C(=O)c3ccccc3Br)CC2)c1 | -21% | ? | 0% | -55% | ? | -2% | -13% | 5.2%
O=C(c1ccco1)N1CCN(C(=O)N2c3ccccc3Sc3ccccc32)CC1 | 2% | ? | ? | -119% | ? | -13% | nt | -14%
O=[N+]([O-])c1cccc(S(=O)(=O)Nc2ccc3cn[nH]c3c2)c1 | 22% | 4% | nt | nt | ? | 3% | 7% | nt
CCOC(=O)c1cc(-c2ccc(OC)cc2)n(CCC(=O)Nc2ccccc2OC)c1C | nt | ? | ? | nt | nt | nt | -26% | 2.8%
COc1cc(NC(=O)c2cc3nc(-c4ccccc4)cc(-c4ccccc4)n3n2)cc(OC)c1OC | 6% | ? | 0% | ? | ? | 0% | -19% | 6.1%
COc1cccc(CNC(=O)C2CC(=O)N(C3CCCCC3)C2)c1 (stereo not given) | -24% | 1%[46.1 µM] | nt | -15% | 12%[46.1 µM] | 0% | 13% | nt

Next part
SMILES | RE007 growth inh | LASV entry inh | Cruzain inh noDet | NS1 function inh | Marburg entry inh | SARS PLP yeast | 2A StopGo | Cruzain inh Det
COc1ccc(C2=NOC(C(=O)N3CCCc4ccccc43)C2)cc1 (stereo not given) | 5% | -3% | -1% | -138% | 0% | -16% | 43%[activator] | -2.2%
Cc1ccc(C(=O)NCC(=O)Nc2cccc(S(=O)(=O)NC3=NCCCCC3)c2)cc1C | -1% | ? | nt | -3% | -4%[46.1 µM] | 0% | -12% | nt
CCN(CC(=O)Nc1cccc(C#N)c1)CC(=O)Nc1cccc(OC)c1 | 26% | -24% | nt | nt | ? | -2% | -19% | nt
COc1ccc(CN2CC34C=CC(O3)C(C(=O)O)C4C2=O)cc1 (stereo not given) | 9% | nt | 1% | -4% | nt | 2% | -13% | 4.4%
O=C(NCc1ccc(Cl)cc1)NCc1noc2ccccc12 | nt | -6%[46.1 µM] | 3% | nt | nt | nt | 45%[activator] | -2.0%
Cc1ccc(C(=O)NCC(=O)OCC(=O)NC(C)C2CC3CCC2C3)cc1 (stereo not given) | 12% | 9% | nt | nt | 18% | -1% | -15% | nt
COc1ccc2c(C)c(CCC(=O)NCCc3ccc(OC)c(OC)c3)c(=O)oc2c1 | nt | -2%[46.1 µM] | 5% | nt | -9%[46.1 µM] | nt | -19% | -5.2%
Cc1ccc(Sc2ncccc2C(=O)NCc2cc([N+](=O)[O-])ccc2O)cc1C | 2% | nt | nt | 6% | nt | -5% | -2% | nt
CC(=O)c1cccc(NC(=O)CN(C)S(=O)(=O)c2cccc3nsnc23)c1 | -1% | nt | nt | 12% | nt | 1% | -1% | nt
O=C(Cn1cnc2c(cnn2-c2ccc(F)cc2)c1=O)NCC1CCCO1 (stereo not given) | 24% | -23% | -4% | 5% | 0% | 0% | -13% | 3.9%
O=C(Cc1ccccc1)Nc1cccc(-c2nnc(-c3ccco3)o2)c1 | 1% | -1% | 3% | -6% | 0% | -13% | 0% | -2.3%
O=C(Nc1cccc(S(=O)(=O)N2CCCCCC2)c1)C1CCN(C(=O)c2ccc(F)cc2)CC1 | 13% | -19%[46.1 µM] | nt | nt | ? | 0% | ? | nt
CCCCN(C)C(=O)CNC(=O)c1nn(-c2ccc(OC)cc2OC)c(=O)c2ccccc12 | 3% | -13% | nt | -4% | 4% | 1% | 10% | nt
Cc1ccc2c(C)c(C(=O)NCCN3CCOC3=O)oc2c1C | -9% | ? | nt | -3% | -1%[46.1 µM] | -3% | 26% | nt
COc1cc(CNCc2ccncc2)cc(Br)c1OCc1ccccc1F | -12% | ? | -3% | -10% | ? | -1% | 32µM* | 2.4%
Cc1nc(NCCN)c(C#N)c2c1COC(C)(C)C2 | -11% | 13% | -2% | 9% | 12%&12% | -25% | -12% | -0.5%
Cc1ccc(Nc2nc(N)nc(CN3CCCCCC3)n2)cc1 | -14% | 0% | -12% | -2% | 5% | 3% | 15% | -5.2%
Cc1cc(C(=O)Nc2ccccc2Cl)n(-c2ccccc2)n1 | 0% | -12%[46.1 µM] | nt | 0% | 6%[46.1 µM] | 2% | 4% | nt
CCCCOc1cccc(-c2nnc(N)s2)c1 | 43% | -1% | -4% | -20% | 13% | 4% | 34%[activator] | -4.1%
O=C(CSc1nc(=O)n2ccccc2n1)Nc1ccc2c(c1)OCO2 | 0% | -13% | nt | nt | -1%[46.1 µM] | 1% | -8% | nt
COc1ccc(CC(=O)NCC(c2cccs2)S(=O)(=O)c2ccc(C)cc2)cc1 (stereo not given) | nt | -27%[46.1 µM] | 4% | nt | nt | nt | -11% | -3.7%
COc1cccc(N2C(=O)C3NN=C(C(=O)CN4C(=O)c5ccccc5C4=O)C3C2=O)c1 (stereo not given) | -2% | -11% | nt | -1% | -1%[46.1 µM] | 0% | -8% | nt
CN(C(=O)CSc1nc2ccc(NC(=O)c3ccccc3F)cc2s1)c1ccccc1 | nt | ? | 23% | nt | ? | nt | 40µM* | -5.9%
O=S(=O)(NCCc1ccc(F)cc1)c1cccc2cccnc12 | 3% | 0% | nt | -8% | ? | 0% | 78%[activator] | nt
O=C1CCCN1CC(O)CS(=O)(=O)Cc1ccccc1 (stereo not given) | 7% | nt | nt | 6% | nt | -4% | -10% | nt

The list goes on.
SMILES | RE007 growth inh | LASV entry inh | Cruzain inh noDet | NS1 function inh | Marburg entry inh | SARS PLP yeast | 2A StopGo | Cruzain inh Det
CC(C)n1c(CCC(=O)O)ccc1-c1ccccc1 | -11% | nt | 11% | -54% | -1% | 2% | 1% | -0.4%
Cc1ccc(S(=O)(=O)NC(=O)NCCCN2CCOCC2)cc1 | 9% | 6%[46.1 µM] | nt | 4% | 0%[46.1 µM] | -1% | -8% | nt
CCOC(=O)c1ccc(NC(=O)C2CCN(S(=O)(=O)c3c(C)nn(C)c3C)CC2)cc1 | -5% | nt | nt | -17% | nt | 2% | -30% | nt
Cc1ccc(NC(=O)CSc2nc(N)c3c4c(sc3n2)CSC(C)(C)C4)cc1 | -3% | 21µM* | ? | 3% | ? | 3% | ? | -3.3%
Cn1c(CNc2nc3ccccc3n2C)nc2ccccc21 | -5% | 21% | -2% | 1% | -1% | -1% | 55%[activator] | 3.9%
CC(C)C(C(=O)Nc1ccccc1)N1C(=O)c2ccccc2C1=O (stereo not given) | -7% | nt | -23% | -124% | nt | -8% | -23% | -7.9%
COc1cccc(C(=O)CSc2nc3cccnc3n2C)c1 | 4% | 5% | 1% | 2% | 4% | -15% | -17% | -15%
N/C(=N\OC(=O)Cc1cccs1)c1ccc(Cl)cc1 | -14% | nt | nt | 7% | nt | 0% | 70%[activator] | nt
CCOCCCNCc1cccc(OC)c1 | 2% | 29% | 0% | 5% | 3% | -4% | 8% | 6.0%
Cc1ccccc1OCc1nc(-c2ccc(-n3cccc3)cc2)no1 | 4% | nt | ? | -2% | nt | 2% | -6% | 0.4%
CCC(Sc1nc(C)cc(C)n1)C(=O)Nc1ccc(Cl)cn1 (stereo not given) | -16% | 0% | -4% | 2% | -9% | -19% | -28% | -3.1%
CSCCC(NC(=O)OCc1ccccc1)C(=O)NCc1cccnc1 (stereo not given) | 3% | nt | nt | -1% | nt | -1% | -1% | nt
Cc1cc(NC(=O)c2ccccc2)nc(C)n1 | -11% | ? | nt | -4% | 10%[46.1 µM] | -1% | -10% | nt
